V. cholerae motility – Vibrio cholerae motility inhibitors, OD read-out (AID 588778); 10,000 tested, under 10 active; inhibition, %, or IC50 in µg/mL where a hit was titrated; Vibrio cholerae motility, OD read-out; higher % means a stronger effect; test concentration not given here; primary cut-off and reference of the scale not given here; strong numbers were not always called active; in the data active = confirmed in a dose series
V. cholerae motility viability – also measured in V. cholerae motility; calls as there; inhibition, %; measured here: bacterial viability at 10 ug/mL;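 higher means fewer living bacteria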
* marks the source's active call; other numbers are inactive results; i = inactive.

SMILES	V. cholerae motility	V. cholerae motility viability
O=C(COc1cccc2ccccc12)NS(=O)(=O)c1ccc(Cl)cc1	1%	-1
CC(=O)c1cccc(NC(=S)NNC(=O)C2CC2c2ccc(C(C)(C)C)cc2)c1 (stereo unspecified)	3%	-8
N/C(=N\OC(=O)CCN1C(=O)c2ccccc2C1=O)c1ccccn1	4%	2
O=S(=O)(Cc1ccccc1Cl)Nc1ccccn1	1%	4
COc1ccc(CNCCNC(=O)c2nonc2N)cc1OC	7%	-8
O=C(NN1CCOCC1)c1csc2ccccc12	-10%	-9
O=C(NCCC1=CCCCC1)NC1CCCCC1	13%	0
Cc1cc(C(C)(C)C)oc1C(=O)N1CCN(C(=O)c2oc(C(C)(C)C)cc2C)CC1	-3%	4
COC(=O)COc1ccc(S(=O)(=O)Nc2ccccc2C(F)(F)F)cc1	-6%	-5
O=C(Nc1c(F)cc(F)cc1Br)c1ccc(Cl)s1	12%	7
CC(C)(C)C(=O)NCCCNC(=O)C(C)(C)C	-9%	-3
OCCCNc1nc(-c2ccccc2Cl)c2cc(Br)ccc2n1	6%	1
Cc1ccc2nc(/C(C#N)=C\c3cccn3C)[nH]c2c1	-2%	-8
O=Cc1cc2cc3c4c(c2oc1=O)CCCN4CCC3	15%	3
COc1cc2cc(-c3nc4ccccc4[nH]3)c(N)nc2cc1OC	17%	5
COc1ccc(CN2CCN(Cc3ccc(Br)cc3)CC2)cc1OC	8%	-6
O=c1[nH]c(CN2CCN(c3ccc(F)cc3)CC2)nc2ccccc12	-3%	-1
Cc1ccc(N(C(=O)C23CC4CC(CC(C4)C2)C3)C2C=CS(=O)(=O)C2)cc1 (stereo unspecified)	16%	3
CCN(CC)C(=O)C1CCCN(c2ccc([N+](=O)[O-])cc2S(=O)(=O)N2CCCC2)C1 (stereo unspecified)	5%	8
C=CCSc1nnc2c(n1)OC1(Nc3ccccc3-2)C(=O)Nc2ccc(Br)cc21 (stereo unspecified)	-6%	-7

Two entries from above, reformatted:
> Cc1cc(C(C)(C)C)oc1C(=O)N1CCN(C(=O)c2oc(C(C)(C)C)cc2C)CC1
  V. cholerae motility: -3%; V. cholerae motility viability: 4
> COC(=O)COc1ccc(S(=O)(=O)Nc2ccccc2C(F)(F)F)cc1
  V. cholerae motility: -6%; V. cholerae motility viability: -5

Later entries:
SMILES	V. cholerae motility	V. cholerae motility viability
COc1ccc(S(=O)(=O)N2CCn3c2nc2ccccc23)cc1	-9%	-7
COc1ccc(C(NC(=O)CCN2C(=O)c3ccccc3C2=O)c2ccccc2)cc1 (stereo unspecified)	-1%	-2
O=C(NC(NC(=O)C(c1ccccc1)c1ccccc1)c1cccc([N+](=O)[O-])c1)C(c1ccccc1)c1ccccc1	-1%	0
O=C(Nc1ccon1)C1CCN(S(=O)(=O)c2cccs2)CC1	-3%	-5
O=C1CCCS(=O)(=O)c2ccccc21	-5%	-6
COc1cc(/C=C/[N+](=O)[O-])ccc1OC(=O)c1ccco1	113%	52
Cc1ccc2nc(SCC(N)=O)nc(C)c2c1	9%	0
Cc1csc(SCC(=O)Nc2cccc3nsnc23)n1	22%	8
CC1(C(=O)c2ccc(Cl)cc2)C2c3c(ccc4ccccc34)OC(=O)C21C(=O)N1CCOCC1 (stereo unspecified)	-20%	-8
O=C(O)CCCCN1Cc2ccccc2C1	2%	7
C=CCc1cc(C)ccc1CC(O)Cn1c(C)nc2ccccc21 (stereo unspecified)	1%	27
CCOC(=O)c1ccc(NC(=O)N2CCN(c3ncccn3)CC2)cc1	0%	2
O=C(Nc1ccc(I)cc1)c1ccccc1SCc1ccccc1	-22%	-10
O=C(CN1C(=O)c2cccc3cccc1c23)N1CCc2ccccc2C1	12%	27
CCOc1ccccc1NC(=O)c1cc(-c2ccccc2)oc1C	-17%	-10
O=C(NCc1ccco1)c1ccc(NC(=O)C2(c3ccccc3)CCCC2)cc1	-11%	-10
O=C(CSCc1c(F)cccc1Cl)Nc1ccccc1Br	-15%	-11
CCOc1ccc(NC(C)c2cc(Cl)ccc2O)cc1 (stereo unspecified)	-1%	3
Cc1onc(-c2ccccc2Cl)c1C(=O)Nc1cc(=O)n(C)c(=O)n1C	-2%	0
Cc1cc(NC(=O)c2cnccn2)no1	-8%	-2
Cc1c(Cl)cccc1NC(=O)C(=S)N1CCOCC1	7%	-2
CC1=CC(=O)N(CCC#N)c2ccccc2N1	8%	-9
COc1ccc(C(=O)Nc2ccc(S(=O)(=O)Nc3nccnc3OC)cc2)cc1OC	-27%	-14
CC(=O)Oc1cnc2ccc(C)cc2c1	17%	4
O=C(Oc1ccnc2cc(Cl)ccc12)N1CCCCCC1	-2%	-2
CCOC(=O)c1sc(NC(=O)c2cc(C)on2)nc1-c1ccccc1	-1%	-3
CCc1c(C)nc(SCCOc2ccc(OC(C)C)cc2)[nH]c1=O	0%	2
O=C(N/C(=C/c1cccs1)c1nc2ccccc2[nH]1)c1cccs1	i	33
O=C(NCc1ccco1)c1ccccc1-c1ccccc1	6%	-2
O=C(Cc1ccc([N+](=O)[O-])cc1)NNC(=O)C1CCCCC1	8%	11
CN(C)C(=O)CSc1nnc(C23CC4CC(CC(C4)C2)C3)o1	4%	6
CC(C)(C)c1ccc(NC(=O)C(=O)NCCCN2CCOCC2)cc1	-24%	-7
CCCc1sc(-n2c(C)ccc2C)c(C#N)c1C	-8%	-7
Cc1ccc2nc(C3C(=O)c4ccccc4C3=O)ccc2c1	-3%	-3
CSc1ncc(C(=O)Nc2cccc(C(F)(F)F)c2)cn1	-29%	-8
COc1ccccc1OC(C)C(=O)c1ccc(Cl)cc1 (stereo unspecified)	-33%	-9
O=C(Nc1ccc(S(=O)(=O)N2CCCC2)cc1)c1csc2c1CCCC2	-4%	0
O=c1[nH]c2ccccc2cc1CN(Cc1ccco1)S(=O)(=O)c1ccccc1	-9%	-5
O=C(CCc1ccccc1)N1CCN(CCO)CC1	-6%	-1
O=C(O)c1ccc(S(=O)(=O)C(F)(F)F)cc1	-4%	-7

Retrieved by structure from above:
SMILES	V. cholerae motility	V. cholerae motility viability
O=C(Nc1ccc(S(=O)(=O)N2CCCC2)cc1)c1csc2c1CCCC2	-4%	0
CCc1c(C)nc(SCCOc2ccc(OC(C)C)cc2)[nH]c1=O	0%	2

Part of the list above in order of length of the SMILES, lowest first.
SMILES	V. cholerae motility	V. cholerae motility viability
O=C(CCc1ccccc1)N1CCN(CCO)CC1	-6%	-1
O=C(NCc1ccco1)c1ccccc1-c1ccccc1	6%	-2
Cc1ccc2nc(C3C(=O)c4ccccc4C3=O)ccc2c1	-3%	-3
O=C(Cc1ccc([N+](=O)[O-])cc1)NNC(=O)C1CCCCC1	8%	11

The listing picks up, starting two compounds before the break.
SMILES	V. cholerae motility	V. cholerae motility viability
O=C(CCc1ccccc1)N1CCN(CCO)CC1	-6%	-1
O=C(O)c1ccc(S(=O)(=O)C(F)(F)F)cc1	-4%	-7
CC(C)CC(NS(=O)(=O)c1cccs1)C(=O)O (stereo unspecified)	8%	0
O=C(CC12CC3CC(CC(C3)C1)C2)Nc1ccc(N2CCN(Cc3ccccc3F)CC2)cc1	-9%	-13
COC(=O)C(C(=O)OC)N1C(=O)CCC1=O	-27%	1
Cc1[nH]c2ccccc2c1C(=O)CSc1nc2ccccc2o1	6%	19
Cc1ccc(OCC(=O)N2CCN(C(=O)c3ccncc3)CC2)cc1	7%	27
CN1CCN(c2cc(N)nc(N)n2)CC1	-7%	-4
O=C1CSC(c2ccc3c(c2)OCO3)N1c1ccc(Cl)cc1 (stereo unspecified)	0%	-2
COc1ccc(NC(=S)NNC(=O)CSCc2ccccc2Br)cc1OC	4%	1
Cn1ccnc1CN1CCN(Cc2nccn2C)CC1	-3%	-6
O=C(CNC(=S)NC(=O)c1ccc(F)cc1)c1ccccc1	-64%	-21
CCOc1ccc(Nc2nc(C)c(C(C)=O)s2)cc1	-7%	-8
C=CCN(c1ccc(C(=O)O)cc1)S(C)(=O)=O	6%	4
COc1cc2c(cc1NC(=O)c1c(C)noc1C)oc1ccccc12	-18%	2
COC(=O)C1=CN(c2ccc(F)cc2)C=C(C(=O)OC)C1c1ccc(Cl)s1	-5%	-3
COc1cc(NS(=O)(=O)c2ccc(NC(=O)CSc3nc(N)cc(=O)[nH]3)cc2)nc(OC)n1	7%	-5
CCOc1cc(/C=C2/SC(=S)NC2=O)cc([N+](=O)[O-])c1OCCCOc1cccc(C)c1	15%	3
O=C(NCCOCC(F)(F)C(F)F)c1cc(F)c(F)cc1Cl	-1%	-5
O=C(COc1ccc2c(c1)CCC2)NNC(=O)Nc1ccccc1C(F)(F)F	11%	5
Nc1nc2c(o1)-c1[nH]c(=O)ncc1C2c1cccc(C(F)(F)F)c1 (stereo unspecified)	8%	20
Cc1ccc(/C(N)=N/OC(=O)CN(C)S(=O)(=O)c2ccc3ccccc3c2)cc1	7%	-7
O=C(c1ccc(COc2ccc(I)cc2)o1)N1CCCC1	3%	4
O=C1C2C(C(=O)N1Cc1cccnc1)C1C=CC2C12CC2 (stereo unspecified)	-8%	-2
COc1cccc(OC(=O)c2cccc([N+](=O)[O-])c2C)c1	8%	-4
Cc1cc(C(=O)N2CCN(c3ccccn3)CC2)c(C)o1	15%	31
O=C(NCc1cccnc1)c1ccc(Cl)s1	5%	0
CC(=O)Nc1ccc(Sc2ccccc2C(=O)O)cc1	-1%	-4
O=S(=O)(Nc1ccc(O)c(-c2c(O)ccc3ccccc23)c1)c1cccc2ccccc12	8%	9
C=CCNc1nc(-c2ccccc2)c(C(=O)Nc2ccc3c(c2)OCCO3)s1	-11%	-10
CCC(=O)c1ccccc1OCCCn1cncn1	5%	0
O=C(CCN1C(=O)c2cccc3cccc(c23)C1=O)NC1CCS(=O)(=O)C1 (stereo unspecified)	9%	-2
OC1(c2cccc(C(F)(F)F)c2)CCN(C(=S)NCCc2ccccc2)CC1	10%	4
COc1cc(/C=C(/C#N)C(N)=S)c(Br)cc1O	18%	3
CC(Oc1cccc(Br)c1)C(=O)Nc1ccc2c(c1)OCO2 (stereo unspecified)	16%	-1
COc1ccccc1N1CCN(C(=O)c2cc(-c3ccc(C)o3)nc3ccccc23)CC1	-11%	-12
CCOc1cc(C(=O)O)cc(Br)c1OCC(N)=O	-8%	-1
Cc1nc(NCc2ccco2)[nH]c(=O)c1CCC(C)C	28%	10
COc1ccc(S(=O)(=O)N/N=C/c2ccc(OC(=O)Nc3ccccc3)c(OC)c2)cc1	8%	6
CC(=O)c1ccc(N2CCN(C(=O)C3CCC3)CC2)cc1	11%	3
Cc1c(NC(=O)CSc2nnc(Cc3ccccc3)o2)c(=O)n(-c2ccccc2)n1C	-8%	0
COc1cc(-c2nc3cc(Cl)ccc3o2)cc(OC)c1OC	20%	3
Cc1cccc(OC2CCS(=O)(=O)C2)c1 (stereo unspecified)	0%	-4
CCC(=O)Nc1nc(OC)cc(OC)n1	-3%	-1
O=C(C1COc2ccccc2O1)N(Cc1ccccc1)Cc1ccccc1 (stereo unspecified)	12%	-2
Cc1onc(-c2ccccc2Cl)c1-c1nc(-c2ccccc2F)no1	5%	-2
CCOC(=O)c1c(NC(=O)Cc2nn(C)c(=O)c3ccccc23)sc2c1CCCC2	-29%	-4
Cc1[nH]ncc1C(=S)Nc1ccccc1	-2%	-5
CCn1nnc(NC(=O)c2ccc([N+](=O)[O-])o2)n1	101%	100
COC(=O)N1CC(C)N(C(=O)OC)CC1C (stereo unspecified)	-8%	-9
N#Cc1c2c(c(-c3ccco3)[nH]c1=O)CCCC2	12%	-6
Cc1cc(C)c(C)c(S(=O)(=O)NCc2ccc(C(=O)N3CCCC3)cc2)c1C	-14%	-3
CCOc1ccc2nc(SCC(=O)Nc3ccc(S(=O)(=O)Nc4ccccn4)cc3)sc2c1	18%	3
CCCCCOc1ccc(NC(=O)C(=O)NCCN2CCOCC2)cc1	-4%	-8
Cc1ccc(SCC(=O)NCc2ccncc2)cc1	-10%	-1
COc1ccc(-c2nnc(SCC(=O)c3ccc(-c4ccccc4)cc3)o2)cc1OC	7%	10
Cc1ccc(NC2(C#N)C(=O)Nc3ccccc32)cc1 (stereo unspecified)	1%	-3
S=c1nc(-c2sc3ccccc3c2Cl)[nH]c2ccccc12	-26%	-12
CCc1sc(N(C(=O)Cc2ccccc2)c2ccccc2Br)nc1-c1ccccc1	-6%	-2
Cc1cnn(CCCNC(=O)c2csc3ccccc23)c1	15%	5
OCCN1CCN(C(=S)NC2CC2)CC1	-11%	-1
CC1(C)C(=O)OC(c2ccccc2[N+](=O)[O-])C2(CCCCC2)C1=O (stereo unspecified)	-11%	0

New compounds follow:
SMILES	V. cholerae motility	V. cholerae motility viability
O=C(OCc1nnc(-c2ccccc2)o1)C1CC(=O)N(c2ccccc2)C1 (stereo unspecified)	5%	-1
O=C(Nc1cccc([N+](=O)[O-])c1)N1CCN(Cc2ccc(Cl)cc2Cl)CC1	1%	5
CC1CN(C(=S)NC(=O)c2ccccc2F)CC(C)O1 (stereo unspecified)	-5%	-3
N#C/C(=C\c1cn[nH]c1-c1ccccc1)c1nc(-c2ccco2)cs1	44%	43
NC(=O)C1(N2CCCCC2)CCN(C(=S)Nc2ccc(S(N)(=O)=O)cc2)CC1	-10%	-6
CCCOc1ccc(C2Oc3ccc(Br)cc3C=C2[N+](=O)[O-])cc1OC (stereo unspecified)	13%	5
CCc1c(C)nc(SCc2ccc([N+](=O)[O-])cc2)c(C#N)c1C	2%	-1
COc1ccc(N(CC(=O)Nc2ccc(Cl)c(C(F)(F)F)c2)S(C)(=O)=O)cc1Cl	25%	-2
O=C(NCc1n[nH]c(=O)c2ccccc12)c1cc2ccccc2oc1=O	6%	3
CCn1ccc(C(=O)Nc2ccc(C(F)(F)F)cc2Cl)n1	-8%	-2
O=C(COc1ccc(F)cc1)Oc1ccc(Br)cc1	-3%	-6
CCOc1ccc(-c2nnc(SCC)c3ccccc23)cc1	-15%	1
Fc1ccc(N2CCN(Cc3ccc(Cl)c(Cl)c3)CC2)cc1	25%	15

This is a subset; rates above refer to the full screens.
